Bioassay records (PubChem)
HPGD block: blocks human HPGD enzyme activity; P15428; Potency, µM, without a hit: top-dose activity change, negative = inhibition, actives largely listed as inhibitors; AID 894; hit rate 4.3% among 150,000; purified HPGD, NADH fluorescence kinetic, PGE2 substrate; active = well fitted inhibition curve with a large enough effect (not every such curve was filed as active); inconclusive = small, poorly fitted or top-dose-only effect, or another doubt; inactive = no such curve, though single readings can be large or run the other way;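 note: top concentration of the series not given in the record; plate controls included wells without enzyme; inactives centre near -10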
Target sequence (P15428 whole entry, looked up): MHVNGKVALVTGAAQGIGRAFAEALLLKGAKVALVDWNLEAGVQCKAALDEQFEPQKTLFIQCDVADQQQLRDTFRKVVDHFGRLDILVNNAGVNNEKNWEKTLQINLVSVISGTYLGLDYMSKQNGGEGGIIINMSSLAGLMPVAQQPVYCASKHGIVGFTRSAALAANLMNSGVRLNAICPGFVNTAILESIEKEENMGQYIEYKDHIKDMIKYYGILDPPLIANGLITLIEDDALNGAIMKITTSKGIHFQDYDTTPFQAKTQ
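20 nM HPGD preincubated 15 min at room temperature with compound in 50 mM Tris-HCl pH 8, 0.01% Tween 20. Started with 1 mM NAD+ and 30 uM prostaglandin E2; NADH fluorescence (360/450 nm) read 5 times over 30-s intervals, last minus first.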
The depositor's hits bear a star; u = inconclusive; & = joins results of further samples. % is set by controls: 0 for no effect and ±100 for the full control effect; potency is the fitted concentration of half-maximal effect. This is a subset (hit frequency here may not be typical).

SMILES | HPGD block
CCOC(=O)N1CCC(=NNS(=O)(=O)c2cccc([N+](=O)[O-])c2)CC1 | -13%
CC(=O)Nc1ccc2c(c1)C(=Nc1ccc(C(=O)O)cc1)c1ccccc1-2 | -16%
CCOC(=O)/C=c1\s/c(=C\c2ccc3cc(OC)ccc3c2)c(=O)n1CC(=O)NCC1CCCO1 (configuration not stated) | -18%
O=C(CCCN1C(=O)/C(=C\c2cccs2)SC1=S)Nc1cccnc1 | -7%
Clc1cccc(-c2nc(-c3ccccn3)no2)c1 | 3%
CCn1cc([N+](=O)[O-])c(C(=O)Nc2ccn(Cc3ccccc3)n2)n1 | -12%
O=C(CCc1ccc(S(=O)(=O)N2CCOCC2)cc1)Nc1cc(Cl)ccc1N1CCOCC1 | -3%
CCN=c1sc(C(=O)OC)cc(=O)n1CC | -2%
CC(C)CCNC(=O)CC1C(=O)N(Cc2ccccc2)C(C)c2nc3ccccc3n21 (configuration not stated) | -11%
Nc1cc(OC(=O)c2ccccc2Br)nn1S(=O)(=O)c1ccccc1 | u
Cc1c(NC(=O)c2cccnc2C(=O)O)cccc1C(=O)O | 0%
CC(=O)N(c1ccccc1)c1nc(/C=C/C(=O)Nc2c(C)cc(C)cc2C)cs1 | -6%
Cc1nnc(N(Cc2ccco2)C(=O)c2ccno2)s1 | -7%
Cc1cccc(N=C(NO)c2nonc2N)c1 | -18%
COc1ccc(NC(=O)CC2C(=O)N(CCc3ccccc3)C(=S)N2Cc2cccnc2)cc1 (configuration not stated) | -4%
COc1ccc(-n2ncc3c(N4CCc5ccccc54)ncnc32)cc1 | u
Cc1ccccc1OCC1Cn2c(nc3c2c(=O)[nH]c(=O)n3C)O1 (configuration not stated) | -5%
Cc1ccc(-n2c(=O)c3ccc(C(=O)NCc4ccco4)cc3n(Cc3ccccc3C#N)c2=O)cc1 | -20%
CC(C)[C@@H](CC(=O)N[C@@H]1CCNC[C@H]1C(=O)N[C@H](CC(=O)N[C@@H](CCC(=O)O)CC(=O)O)Cc1ccccc1)NC(=O)C[C@H](CO)NC(=O)[C@@H]1CCCC[C@H]1N | -4%
CCN(CC)S(=O)(=O)c1ccc(C(=O)OCC(=O)c2ccc3c(c2)NC(=O)CO3)cc1 | -11%
Clc1ccc(-c2nnc3ccccn23)cc1 | -27%
C/C(=N\NC(=O)c1ccccc1C)c1ccc(N2CCOCC2)cc1 | -15%
Cc1sc2ncnc(Sc3nnnn3-c3ccc(Cl)cc3)c2c1C | u
CCC(c1nnnn1C1CCCC1)N1CCN(C(=O)c2ccco2)CC1 (configuration not stated) | -14%
CCc1ccc(/C=N/Nc2nn[nH]n2)cc1 | -12%
NC(=O)C1CCC(NC(=O)OCc2ccccc2)CC1 (configuration not stated) | -8%
Cc1ccc(C)c(S(=O)(=O)N2C(=S)NC(=O)C2CC(C)C)c1 (configuration not stated) | 0%
CCOC(=O)C1=C(C)N[C@@]2(O)c3ccccc3C(=O)[C@@]12O | -7%
O=C(OCC(=O)N1CCOCC1)C(c1ccccc1)c1ccccc1 | -7%
CCCn1nc(C(=O)NCC(C)(C)N2CCOCC2)c2ccccc2c1=O | -4%
N#Cc1ccc(CS(=O)(=O)c2nc3ccccc3s2)cc1 | -3%
Cc1ccc2c([N+](=O)[O-])cccc2n1 | -25%
O=C(c1c(Cl)nc2sccn12)N(C(=O)c1c(Cl)nc2sccn12)c1ccc(Cl)cn1 | u
Cc1c(N=C/C=C2/N(C)c3ccccc3C2(C)C)c(=O)n(-c2ccccc2)n1C | -1%
N#C/C(=C\c1ccccc1C(F)(F)F)C(=O)Nc1ccccc1 | -1%
Cc1cccc(NC(=O)CCc2ccc(C)o2)c1 | -20%
Cc1nn(-c2ccccn2)c2c1C(c1c(F)cccc1Cl)C1=C(N2)c2ccccc2C1=O (configuration not stated) | -11%
Cn1nc(-c2ccc(N3CCCCC3)c(NC(=O)c3ccco3)c2)c2ccccc2c1=O | -29%
CCCCNC(=O)CC1C(=O)N(Cc2ccccc2)C(C)c2nc3ccccc3n21 (configuration not stated) | -12%
CCOC(=O)CSc1nnc(Cc2ccccc2)n1-c1ccc(C)cc1 | -7%
C=CCc1cccc2cc(C(=O)NCc3ccc(C(=O)OCC)o3)c(=O)oc12 | -22%
COc1ccc(N=C2SC(CC(=O)Nc3ccc(OC)cc3OC)C(=O)N2C)cc1 (configuration not stated) | -9%
O=C(Nc1cccc(F)c1)C1CCN(C(=O)c2ccccc2Cl)CC1 | -2%
NC(=O)/C=C\c1cn(-c2ccccc2)nc1-c1ccc2c(c1)OCCO2 | u
CSCCC(NS(=O)(=O)c1ccc2c(c1)oc(=O)n2C)C(=O)NC1CCC(C)CC1 (configuration not stated) | -5%
Nc1ccc(Oc2ccc(Cl)cc2)cc1 | -9%
COc1ccccc1/C=C1\CCCC2=C1Nc1nnnn1C2c1ccccc1OC (configuration not stated) | -16%
Cc1cc(NC(=O)c2cccc(S(=O)(=O)N(C)C)c2)n(-c2ccccn2)n1 | -16%
COC(=O)c1cc(OC)c(OC)cc1NC(=O)CN1CCOCC1 | -9%
CCN(CC)S(=O)(=O)c1ccc2c(c1)nc(SCC(=O)N1CCCCCC1)n2-c1ccc(OC)cc1 | -11%
CC(C)[C@H](NC(=O)c1cccc(S(=O)(=O)N2CCCC2)c1)c1nc2ccccc2[nH]1 | -6%
Fc1cccc(-c2cc3nc4c(c(N5CCOCC5)n3n2)CCCC4)c1 | u
CC(C)C1=C2CCCCC2NC(=O)N1 (configuration not stated) | -11%
c1ccc2c(Nc3nc4c(s3)CCCC4)cccc2c1 | u
O=C(CNS(=O)(=O)c1ccc(Br)cc1)OCc1cc(=O)n2cc(Br)ccc2n1 | -16%
CCOC(=O)C1CCCN(c2c(NCCCN3CCCC(C)C3)c(=O)c2=O)C1 (configuration not stated) | -5%
Cc1ccc(S(=O)(=O)N2CCOCC2)cc1NC(=O)COC(=O)CNC(=O)c1ccccc1 | -14%
CCOC(=O)N1CCN(C(=O)COc2cccc3c2CCN(Cc2ccc(F)cc2)C3=O)CC1 | -12%
CN(C(=O)CN1CCC(NC(=O)C2CCCCC2)CC1)C1CCCCC1 | -3%
COc1cc(/C=N/NC(=O)CN2CCOCC2)ccc1OCc1ccccc1 | -15%

(more compounds)
SMILES | HPGD block
COc1ccc2c(c1)CC[C@@H]1[C@@H]2CC[C@]2(C)C(=O)CC[C@@H]12 | -6%
CC(C)Oc1ccc(C2NC(=O)NC2=O)cc1 (configuration not stated) | -12%
CC1=C(C(=O)OC(C)C)C(C)C(C(=O)OC(C)C)=C(C)N1 | -19%
O=C(Nc1ccccc1N1CCCCC1)c1ccc(F)cc1 | -2%
CC(C)C(=O)Nc1nnn(C)n1 | -6%
COc1cccc([C@@H]2Oc3ccc(Br)cc3C(=O)[C@H]2OC(=O)NCCc2ccc(OC)c(OC)c2)c1 | -20%
CN1C(=O)CC(NNC(=O)c2ccc(Cl)cc2)C1=O (configuration not stated) | 2%
CC(=O)c1cccc(S(=O)(=O)NCC2CCCCC2)c1 | -5%
COc1cc(-c2nc3cnccn3c2Nc2c(C)cccc2C)ccc1O | u
Cc1onc(-c2ccccc2)c1C(=O)NCc1ccco1 | -3%
c1ccc(Cn2nnnc2C(c2cccs2)N2CCCCCC2)cc1 (configuration not stated) | 4%
Cc1cccc(NC(=O)c2cc(S(=O)(=O)c3ccccc3)ccc2Cl)c1 | -14%
Cc1ccccc1-n1c(Cn2c(=O)sc3ccccc32)nnc1SCC(=O)Nc1nccs1 | -13%
O=C(C1CCC1)N(CCc1ccccc1)Cc1nc2ccccc2c(=O)[nH]1 | -9%
O=C(Cn1cnc2c(cnn2-c2ccc(F)cc2)c1=O)OCc1ccccc1 | -12%
CCCCC/C=C\C/C=C\C/C=C\C/C=C\CCCCCC(=O)NCC(=O)O | -19%
Cn1cc([N+](=O)[O-])c(C(=O)Nc2nc(-c3ccc(Cl)cc3)cs2)n1 | -16%
O=C(Cc1c(F)cccc1Cl)NCC1CCCO1 (configuration not stated) | -7%
NC1=C(c2ccc([N+](=O)[O-])cc2)C(=O)CO1 | -13%
CN(C1CCCCC1)S(=O)(=O)c1ccc(S(=O)(=O)N2CCCC2)cc1 | 2%

6 neighbouring compounds from above, for reference:
SMILES | HPGD block
O=C(Cn1cnc2c(cnn2-c2ccc(F)cc2)c1=O)OCc1ccccc1 | -12%
CCCCC/C=C\C/C=C\C/C=C\C/C=C\CCCCCC(=O)NCC(=O)O | -19%
Cn1cc([N+](=O)[O-])c(C(=O)Nc2nc(-c3ccc(Cl)cc3)cs2)n1 | -16%
O=C(Cc1c(F)cccc1Cl)NCC1CCCO1 (configuration not stated) | -7%
NC1=C(c2ccc([N+](=O)[O-])cc2)C(=O)CO1 | -13%
CN(C1CCCCC1)S(=O)(=O)c1ccc(S(=O)(=O)N2CCCC2)cc1 | 2%

Later entries:
SMILES | HPGD block
N#Cc1c(N)nc2c(c1-c1ccc3c(c1)OCO3)CCc1ccccc1-2 | u
CNC(=O)c1ccc(Nc2nnc(-c3ccc(C)c(S(=O)(=O)NCC4CCCO4)c3)c3ccccc23)cc1 (configuration not stated) | 25µM*
CC(=O)Nc1ccc(S(=O)(=O)Nc2nc3n(n2)C(c2ccccc2)CC(=O)N3)cc1 (configuration not stated) | -7%
Cc1ccc(NC(=O)c2cc3c(s2)CCCC3)cc1S(=O)(=O)Nc1ccccc1Cl | u
COc1cc(OC)nc(Oc2ccccc2C(=O)Oc2ccc(C)cc2)n1 | -8%
CC1OCC23CC[C@@]4(C)CCC(C)(C)C[C@H]4[C@]2(C)CCC12C3CC[C@@]1(C)C2C(=O)CC(=O)[C@@H]1C (some centres not stated) | -1%
Cc1c(S(=O)(=O)Nc2ccc3c(c2)OCCO3)c(=O)n(C)c(=O)n1C | -14%
CCC(=O)Nc1nc2n(n1)C(c1ccc(OC)cc1)C=C(c1ccccc1)N2 (configuration not stated) | u
CC1CC(=O)C(C2c3ccccc3CCN2C(=O)CCl)C(=O)C1 (configuration not stated) | -6%
COc1ccc2nc(NC(=O)c3cnccn3)sc2c1 | -16%
O=C(Cn1nnc(-c2ccc(S(=O)(=O)N3CCCC3)cc2)n1)Nc1ccccc1-n1cccc1 | -2%
CN1C(=O)N(C)C2(c3ccccc3)NC(=O)NC12c1ccccc1 (configuration not stated) | -9%
CCn1c2ccccc2c2cc(NC(=O)COC(=O)c3cc(OC)c(OC)cc3OC)ccc21 | u
O=C(CCCN1C(=O)c2ccccc2C1=O)NC1CCCCCC1 | -22%
CCOC(=O)C1CCN(C(=O)C2CCN(S(=O)(=O)c3c(C)noc3C)CC2)CC1 | -15%
CC1(C)Nc2ccc(O)cc2-c2c1ssc2=S | u
O=C(NCCCN1CCOCC1)c1ccc(Cc2nc3ccccc3[nH]2)cc1 | -6%
Cc1occc1C(=O)Nc1cccc(C(=O)NCc2ccccc2)c1 | 22µM*
O=C(OCc1nc2ccccc2s1)[C@@H]1CCCN1S(=O)(=O)c1ccccc1F | -16%
CN1C(=O)COc2ccc(C(=O)c3oc4ccccc4c3-c3cnc4c(c3)COc3ccccc3-4)cc21 | -11%

Some of the entries so far, with the structure last.
| HPGD block | SMILES |
| --- | --- |
| -16% | COc1ccc2nc(NC(=O)c3cnccn3)sc2c1 |
| -2% | O=C(Cn1nnc(-c2ccc(S(=O)(=O)N3CCCC3)cc2)n1)Nc1ccccc1-n1cccc1 |
| -9% | CN1C(=O)N(C)C2(c3ccccc3)NC(=O)NC12c1ccccc1 (configuration not stated) |
| u | CCn1c2ccccc2c2cc(NC(=O)COC(=O)c3cc(OC)c(OC)cc3OC)ccc21 |
| -22% | O=C(CCCN1C(=O)c2ccccc2C1=O)NC1CCCCCC1 |
| -15% | CCOC(=O)C1CCN(C(=O)C2CCN(S(=O)(=O)c3c(C)noc3C)CC2)CC1 |
| u | CC1(C)Nc2ccc(O)cc2-c2c1ssc2=S |

Next part
SMILES | HPGD block
COc1cc2c(cc1OC)-c1nnc(-c3cccs3)n1C1(CCCC1)C2 | u
CCC(=O)c1c(O)cc(O)cc1O | -18%
O=C1CC(c2ccccc2)CC(O)=C1C=NCCCN1CCOCC1 (configuration not stated) | -8%
O=C(CSc1nc(-c2cccs2)cc(C(F)(F)F)n1)Nc1cc(OCC(F)(F)F)cc([N+](=O)[O-])c1 | 0%
CNC(=S)N(Cc1ccco1)Cc1cc2cc3c(cc2[nH]c1=O)OCCO3 | u
CCOC(=O)c1c(C)[nH]c(C(=O)COC(=O)c2ccccc2NC(=O)c2ccco2)c1C | u
C=C1CSc2nc(=O)c3c4c(sc3n21)CCCC4 | 14µM*
CCOc1ccccc1OCCCOc1ccc(C)cc1Br | u
COc1cccc(-c2nc(S(=O)(=O)c3ccccc3)c(N3CCOCC3)o2)c1 | -4%
CCC(=O)Nc1c(S(=O)(=O)c2ccccc2)c2nc3ccccc3nc2n1Cc1ccccc1 | u
Cc1c(/C=N/NC(=O)COc2ccccc2[N+](=O)[O-])c2ccccc2n1C | -14%
CC(=O)OCC1=C(C(=O)O)N2C(=O)[C@@H](NC(=O)Cc3cccs3)[C@H]2SC1 | -16%&-16%
COc1ccc(-n2c(Cn3nnc4ccccc43)n[nH]c2=S)cc1 | -13%
COc1cccc(C(CC(=O)NCCN2CCOCC2)NS(=O)(=O)c2ccc(C)cc2)c1OC (configuration not stated) | 0%
CC(C)NC(=O)NC(=O)COC(=O)c1ccccc1Oc1ccccc1 | 0%
O=C(COc1ccccc1)Nc1nn[nH]n1 | 1%
Cc1nn(Cc2c(F)c(F)c(F)c(F)c2F)c(C)c1NC(=O)c1ccc(COc2cc(Cl)ccc2Cl)cc1 | -3%
COCCN(CC(=O)NC1CCCCC1)C(=O)c1csnn1 | -5%
COC(=O)CCCC1=CC2=C(c3ccccc3)C(=O)C(C)(OC(=O)C3CCCC3)C(=O)C2=CN1CCCOC(C)C (configuration not stated) | -15%
COCCn1c(-c2ccsc2)nc2c1c(=O)[nH]c(=O)n2CC(C)C | -24%
CC1CCCCC1NC(=O)COC(=O)COc1ccc(Cl)cc1 (configuration not stated) | -7%
O=C(C1CC(c2ccc(F)cc2)=NO1)N1CCCc2ccccc21 (configuration not stated) | -8%
